KCNQ2 inh: KCNQ2 potassium channel inhibitors, primary screen, cell-based, CHO-K1, FluxOR thallium flux, B-score (AID 2156); O88943; 20 min; stronger effect = lower value; only compounds with negative scores are shown here; some inactives read as strong as hits; B-score at 10 µM; 310,000 tested, 1.1% active;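 active = fluorescence ratio B-score at most minus 3 library SDs, with starting brightness B-score within 2 library SDs, cut at about -5.5 in these data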
Target sequence (O88943 whole entry, looked up): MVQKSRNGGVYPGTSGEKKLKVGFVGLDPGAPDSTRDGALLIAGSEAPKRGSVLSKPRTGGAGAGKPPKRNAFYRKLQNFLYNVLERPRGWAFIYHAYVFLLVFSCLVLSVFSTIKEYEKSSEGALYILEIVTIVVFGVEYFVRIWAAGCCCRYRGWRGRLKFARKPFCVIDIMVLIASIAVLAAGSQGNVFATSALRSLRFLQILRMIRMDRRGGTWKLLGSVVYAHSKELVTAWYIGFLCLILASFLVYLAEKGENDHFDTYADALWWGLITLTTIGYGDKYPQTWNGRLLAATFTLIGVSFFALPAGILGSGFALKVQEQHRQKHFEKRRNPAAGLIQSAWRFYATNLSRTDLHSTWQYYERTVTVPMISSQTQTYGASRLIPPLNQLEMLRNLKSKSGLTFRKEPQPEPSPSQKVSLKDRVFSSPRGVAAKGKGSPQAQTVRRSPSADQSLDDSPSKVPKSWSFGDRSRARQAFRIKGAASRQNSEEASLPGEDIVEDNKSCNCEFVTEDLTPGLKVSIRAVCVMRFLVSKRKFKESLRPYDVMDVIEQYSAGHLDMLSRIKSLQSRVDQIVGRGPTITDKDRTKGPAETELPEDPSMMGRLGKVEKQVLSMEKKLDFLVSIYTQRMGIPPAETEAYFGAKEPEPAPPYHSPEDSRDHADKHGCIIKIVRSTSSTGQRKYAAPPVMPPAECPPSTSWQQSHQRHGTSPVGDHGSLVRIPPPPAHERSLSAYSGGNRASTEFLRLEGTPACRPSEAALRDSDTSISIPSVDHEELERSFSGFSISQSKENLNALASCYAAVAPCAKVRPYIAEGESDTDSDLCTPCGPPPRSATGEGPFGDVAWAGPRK
KCNQ2 inh baseline: also measured in KCNQ2 inh; calls as there; B-score; measured here: initial fluorescence intensity artifact check;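 brightness before thallium and not channel activity; 0 = typical well and far values either way flag optical interference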
* marks the source's active call; other numbers are inactive results; i = inactive. Only part of the results is shown; count on the stated rates, not on these rows.

SMILES	KCNQ2 inh	KCNQ2 inh baseline
O=C(COC(=O)C1CCN(c2ccc(C(F)(F)F)cn2)CC1)c1ccccc1Cl	i	0.41
Cc1ccc(-c2cc(C(=O)OCn3nnc4ccccc4c3=O)c3ccccc3n2)cc1	i	-0.02
Cc1ccccc1/C=N\NC(=O)c1ccccc1-n1cccc1	i	0.03
Cc1nn(CC(=O)O)c2ccccc12	i	0.44
O=[N+]([O-])c1ccc(C2=NCCO2)cc1	i	-1.12
CCN(CC(=O)Nc1sc2c(c1C#N)CCC(C)C2)Cc1nc2ccccc2c(=O)[nH]1 (stereo unspecified)	i	1.4
Cc1ccc(OCC(=O)n2nc(C)cc2C)c(C)c1	i	1.28
COc1ccc(C(=O)Nc2ccc(Cl)cc2C(=O)N2CCCC(C)C2)cc1OC (stereo unspecified)	i	0.24
CC(CCc1ccccc1)NC(=O)COC(=O)c1ccc(S(C)(=O)=O)c([N+](=O)[O-])c1 (stereo unspecified)	i	-0.52
O=C(c1ccc(Cl)c(S(=O)(=O)N2CCCCCC2)c1)N1CCN(c2ccccn2)CC1	i	-1.62
O=C(CCc1ccccc1)NC(=S)Nc1ccccc1[N+](=O)[O-]	i	-0.49
Cc1cc(NC(=O)C(C)SCC(=O)Nc2cc(Cl)ccc2N2CCN(C)CC2)no1 (stereo unspecified)	i	-0.02
CN1CCN(c2nc3ccccc3nc2C(C#N)C(=O)OC2CCCCC2)CC1 (stereo unspecified)	i	-1.01
O=C(CSc1nnc(-c2ccncc2)n1Cc1ccco1)c1ccc(Cl)cc1	i	-2.08
CCN1CCN(c2nc(N)c([N+](=O)[O-])c(Nc3ccc(C)c(C)c3)n2)CC1	i	-0.05
COCCNC(=O)Cn1cc2c(n1)CCC(C)C2 (stereo unspecified)	i	-0.54
CCCc1ccc2oc(C(=O)N(C)Cc3nccs3)c(C)c2c1	i	0.25
CC(C)(C)NC(=O)Cn1c(=O)oc2cc(S(=O)(=O)N3CCc4ccccc43)ccc21	i	-0.39
COc1ccc(NC(=O)c2ccco2)c([N+](=O)[O-])c1	i	3.59
C=CCn1c(=O)[nH]c2nc3cc(N=CN(C)C)c(C)cc3nc2c1=O	i	15.3
Cc1ccc(S(=O)(=O)/N=C2/C=C(C3C(=O)CC(C)(C)CC3=O)C(=O)c3ccccc32)cc1	i	-0.35
Cc1ccc(S(=O)(=O)CCC(=O)OCC(=O)c2c(N)n(CC(C)C)c(=O)n(C)c2=O)cc1	i	0.55
CC(=O)c1sc(NC(=O)CN2C(=O)C3CC=CCC3C2=O)nc1-c1ccccc1 (stereo unspecified)	i	-0.32
Cc1cc(OCC(=O)N(C)c2ccccc2)cc2c1C(=O)CC(C)(C)O2	i	0.56
COc1cc(C2Nc3ccc4ccccc4c3C3=C2C(=O)CC(C)(C)C3)ccc1OC(C)C(=O)O (stereo unspecified)	i	0.31
Cc1cccc(NC(=S)N(Cc2cccs2)Cc2cc3cc(C)cc(C)c3[nH]c2=O)c1	i	-0.03
CC1=CC(C)(C)N2C(=O)C3(NCCc4c3[nH]c3ccccc43)c3cc(C)cc1c32 (stereo unspecified)	i	-1.14
O=C(Cc1ccccc1F)NCC1(N2CCOCC2)CCCCC1	i	0.62
Cc1cc2ncn(C(=O)N3CCC(C)CC3)c2cc1C	i	-0.62
CC(C)(C)NC(=O)NC(=O)CSc1nnc2ccccn12	i	-1.25
Cc1cc(C)cc(NS(=O)(=O)c2ccc(-c3cnc(C4CC4)o3)cc2)c1	i	0.07
CNS(=O)(=O)c1cccc(C(=O)OCC(=O)c2c(N)n(C)c(=O)n(C)c2=O)c1	i	-0.11
NC(=O)NC(=O)CC1S/C(=N/N=C2/NC(=O)CS2)NC1=O (stereo unspecified)	i	0.5
Cc1cc(OCC(=O)N2CCOCC2)ccc1NC(=O)c1ccccc1C	i	-0.08
COc1cc(CN2CCCC(N3CCc4ccccc4C3)C2)c(Cl)cc1O (stereo unspecified)	i	0.02
Cc1cccn2c(=O)c3cc(C(=O)NC4CCCCCC4)sc3nc12	i	0.51
c1csc(-c2nn3c(C4COc5ccccc5O4)nnc3s2)c1 (stereo unspecified)	i	0.17
COc1cccc(-n2nnnc2SCC(=O)Nc2ccccc2OC)c1	i	-0.48
CCN(CC(=O)NCc1ccc(Cl)cc1)CC(=O)NC1(C#N)CCCC1	i	3.18
Cn1c(NN)nc2sc3c(c2c1=O)CC(C)(C)OC3	i	0.05

As entered above.
c1csc(-c2nn3c(C4COc5ccccc5O4)nnc3s2)c1 (stereo unspecified) – KCNQ2 inh baseline: 0.17
CCN(CC(=O)Nc1sc2c(c1C#N)CCC(C)C2)Cc1nc2ccccc2c(=O)[nH]1 (stereo unspecified) – KCNQ2 inh baseline: 1.4
Cc1cc(C)cc(NS(=O)(=O)c2ccc(-c3cnc(C4CC4)o3)cc2)c1 – KCNQ2 inh baseline: 0.07
Cc1cccc(NC(=S)N(Cc2cccs2)Cc2cc3cc(C)cc(C)c3[nH]c2=O)c1 – KCNQ2 inh baseline: -0.03
CCN1CCN(c2nc(N)c([N+](=O)[O-])c(Nc3ccc(C)c(C)c3)n2)CC1 – KCNQ2 inh baseline: -0.05
COc1ccc(NC(=O)c2ccco2)c([N+](=O)[O-])c1 – KCNQ2 inh baseline: 3.59
Cc1cc(OCC(=O)N(C)c2ccccc2)cc2c1C(=O)CC(C)(C)O2 – KCNQ2 inh baseline: 0.56

(list continues)
SMILES	KCNQ2 inh	KCNQ2 inh baseline
O=c1cc(CSc2nc3ccccc3c(=O)[nH]2)c2ccc(O)cc2o1	i	-2.04
COc1cccc(CNC(=O)CCC2CCCN(C(=O)c3ccc(OC)o3)C2)c1 (stereo unspecified)	i	-0.9
O=C(O)CCN1/C(=C/C=Nc2ccccc2)Oc2ccccc21	i	-0.01
CCCN(CC1CCCO1)C(=O)CCc1nnc(-c2cc(C)on2)o1 (stereo unspecified)	i	0.81
Cc1ccc(C)c(N2CCN(S(=O)(=O)c3cc4c(cc3C)NC(=O)CO4)CC2)c1	i	-1.73
CCc1ccc2[nH]c(=O)c(CN(Cc3ccc4c(c3)OCO4)Cc3nnnn3C3CCCC3)cc2c1	i	1.61
Cc1nn(CC(=O)Nc2ccncc2)c(C)c1[N+](=O)[O-]	i	0.46
CCCC(=O)Nc1ccc(Oc2ccc(NC(=O)CCC)cc2)cc1	i	0.17
Cc1ccccc1Oc1nc2c(C)cccn2c(=O)c1/C=C(\C#N)C(=O)Nc1c(C)n(C)n(-c2ccccc2)c1=O	i	1.5
CCOC(=O)C1(CCc2ccccc2)CCN(C(=O)CN2C(=O)CSC2=O)CC1	i	0.26
O=C(O)c1c(C(=O)O)c(-c2ccc(Br)cc2)n2c1CSC2	i	1.17
O=C(O)CC(CP(=O)(c1ccccc1)c1ccccc1)C(=O)O (stereo unspecified)	i	-0.87
Cc1ccc(NC(=S)N2CCCCC2)cc1C	i	0.98
O=CNCC(=O)NCCc1ccc(Cl)cc1	i	-0.44
COc1ccc(C2=C(c3ccc([N+](=O)[O-])cc3)C(=O)OC2)cc1	i	-0.01
CCc1ccccc1N(CC(=O)N1CCN(c2ccccc2)CC1)S(C)(=O)=O	i	0.56
CC(=O)c1cn(CC(=O)Nc2ccccc2F)c2ccccc12	i	-0.06
COCCCNc1oc(-c2cccs2)nc1S(=O)(=O)c1ccc(C)cc1	i	1.6
O=C(OCC(=O)N(Cc1ccccc1)Cc1ccccc1)c1ccccc1NCCO	-7.54*	0.06*
CCCN1CCN(C(=O)C(NC(=O)c2ccco2)C(C)C)CC1 (stereo unspecified)	i	-0.77

Arranged by the number under KCNQ2 inh baseline (ascending): three from the list above.
| structure | KCNQ2 inh | KCNQ2 inh baseline |
| --- | --- | --- |
| COc1ccc(C2=C(c3ccc([N+](=O)[O-])cc3)C(=O)OC2)cc1 | i | -0.01 |
| CCCN(CC1CCCO1)C(=O)CCc1nnc(-c2cc(C)on2)o1 (stereo unspecified) | i | 0.81 |
| O=C(O)c1c(C(=O)O)c(-c2ccc(Br)cc2)n2c1CSC2 | i | 1.17 |

The listing continues:
SMILES	KCNQ2 inh	KCNQ2 inh baseline
Cc1ccc(C)c(NC(=O)c2cc(-c3ccccc3)nn2-c2ccccc2)c1	i	3.83
CCN1C(=O)C(CC(=O)Nc2ccc(OC)cc2)N(CCc2ccc(OC)cc2)C1=S (stereo unspecified)	i	1.25
CC(NCc1ccccc1Cl)C(=O)Nc1ccc(C#N)cc1 (stereo unspecified)	i	-0.01
COc1ccc(C(=O)c2sc3nc(C)cc(-c4cccs4)c3c2N)cc1	i	-0.16
CCc1nc(N2CCCCC2C)c2oc3ccccc3c2n1 (stereo unspecified)	-7.47*	-1.66*
CC1CCC(NC(=O)c2ccc(COc3ccccc3)o2)CC1 (stereo unspecified)	i	-0.17
S=C(Nc1ccccc1)N1CCN(C(=S)c2ccccc2)CC1	i	-1.43
CCc1ccc(NS(=O)(=O)c2ccc(OC)c3ncccc23)cc1	i	-0.07
COc1ccc(OCCC(=O)Nc2nccs2)cc1	i	-0.31
COCCCNC(=S)N1CCN(c2nc(C)nc3sc4c(c23)CCCC4)CC1	i	0.92
Cc1c(C(=O)Nc2ccc(F)cc2)oc2ccc(S(=O)(=O)N3CC(C)CC(C)C3)cc12 (stereo unspecified)	i	-0.75
CCN(CC)c1ccc(S(=O)(=O)N2CCOCC2)cc1NC(=O)CSc1cccc[n+]1[O-]	i	1.57
Cc1ccc(OCC(=O)Nc2cc(NC(=O)COc3ccc(C)c(C)c3)cc(C(=O)O)c2)cc1C	i	0.94
Cc1noc(C)c1-c1nnc(-c2ccc(OC(F)(F)F)cc2)o1	i	-0.85
Cc1cccc(NS(=O)(=O)c2cc(C(=O)N3CCN(C)CC3)ccc2C)c1	i	2.17
CCc1ccc(N2C(=O)CN(Cc3ccc(OC)c(OC)c3)C2=S)cc1	i	4.52
O=C(NC1CSCC1OC(=O)c1ccccc1)c1ccccc1 (stereo unspecified)	i	-2.12
O=[N+]([O-])c1ccc(CN2CCCCCC2)cc1	i	0.75
CC(C)(C)CC(=O)OCC(=O)Nc1cc(C(C)(C)C)nn1-c1ccccc1	i	0.51
COC(=O)c1ccccc1NC(=O)N[C@@H](C)C(=O)OC	i	1.91
Cc1ccc(/C=N/Nc2ccc(F)cc2F)s1	i	0.04
CC(=O)Nc1cc(-c2ccc(Cl)cc2)nn1-c1ccccc1	i	1.36
CN(C)CC#CCCCCCCC#CCN(C)C	i	0.46
COc1ccc(Cl)cc1N(CC(=O)N1CCCC1)S(=O)(=O)c1ccc(C)cc1	i	1.06
O=C1CC(c2c(F)cccc2Cl)C(n2cncn2)C(O)=C1C1NCCc2ccccc21 (stereo unspecified)	i	-1.2
COCCn1nnnc1C(C(C)C)N1CCSCC1 (stereo unspecified)	i	1.2
COc1cccc(-n2ccnc2SCC(=O)Nc2ccccc2F)c1	i	0.08
Cc1ccc(NC(=O)Nc2cnc3ccccc3c2)cc1	i	-0.37
CC1=NN(/C(=N\c2nnc(C)s2)Nc2ccc(C)cc2)[C@H](c2ccc(C)cc2)S1	i	-1.05
C=CCn1c(SCC(=O)Nc2ccc(OC)cc2)nc2c([nH]c3ccccc32)c1=O	i	0.52
CCc1cc(=O)oc2c(C)c(O[C@@H]3O[C@H](CO)[C@@H](O)[C@H](O)[C@H]3O)ccc12	i	2.85
CN(CCOc1ccc(F)cc1)Cc1ccccc1	i	1.24
CCOc1ccccc1-n1c(CN2CCN(C(=O)c3ccco3)CC2)nc2ccccc2c1=O	i	0.86
CC(=O)Nc1ccc(C(=O)OCC(=O)Nc2ccc(N3CCOCC3)cc2)cc1	i	2.91
CCOC(=O)CSc1nc2ccccc2c(=O)n1CC1CCCC1	-6.12*	1.17*
O=C1N(CCCCN2C(=O)C3(OCCO3)c3ccccc32)c2ccccc2C12OCCO2	i	-0.54
COc1ccc(C(=O)COc2nc(C)cc(C)c2C#N)cc1	i	-0.5
NC(=O)C1CCN(CC(=O)Nc2cccc(C(=O)Nc3cccc(C(F)(F)F)c3)c2)CC1	i	0.32
COc1ccc(CC(=O)Nc2cccc3ccccc23)cc1OC	i	-1.15
COc1ccc(NC(=S)Nc2ccc3nccnc3c2)cc1	i	0.01

One compound at a time, from the list above. Order of screens: KCNQ2 inh	KCNQ2 inh baseline
`Cc1noc(C)c1-c1nnc(-c2ccc(OC(F)(F)F)cc2)o1` is entered as i	-0.85
`COc1cccc(-n2ccnc2SCC(=O)Nc2ccccc2F)c1` is entered as i	0.08
`CCc1ccccc1N(CC(=O)N1CCN(c2ccccc2)CC1)S(C)(=O)=O` is entered as i	0.56

The list goes on:
SMILES	KCNQ2 inh	KCNQ2 inh baseline
COc1ccc(N2CCN(C(=O)c3cn(C)c(=O)c4c3c3ccccc3n4C)CC2)cc1	i	-1.92
O=C(O)c1cc(NS(=O)(=O)c2ccc(N3CCCCC3)c([N+](=O)[O-])c2)cc(C(=O)O)c1	i	0.1
Cc1ccc(N2CCN(C(=O)c3ccccc3NC(=O)C3CCCCC3C(=O)O)CC2)cc1 (stereo unspecified)	i	-1.46
Cc1cccc(-n2nnnc2SCC(=O)Nc2ccc(N3CCN(C)CC3)cc2)c1	i	-0.51
COc1cc2oc3ccc(C#Cc4ccccn4)cc3c(=O)c2cc1OC	i	0.01
Cn1nnc2cc(NC(=O)N3CC4(C)CC3CC(C)(C)C4)ccc21 (stereo unspecified)	i	-1.8
O=C(O)c1ccc(N2C(=O)c3cccc4c(C(=O)O)ccc(c34)C2=O)cc1	i	0.03
Cc1ccc(C)n1-c1nnc(N2CCC(C(=O)N3CCN(C)CC3)CC2)s1	i	-0.74
Cc1c(NC(=O)c2cc(-c3cccc(Cl)c3)on2)c(=O)n(-c2ccccc2)n1C	i	-0.17
CC(=O)OCC(=O)[C@@]1(O)CC[C@H]2[C@@H]3CCC4=CC(=O)C=C[C@]4(C)[C@H]3[C@@H](O)C[C@@]21C	i	0.55
COc1ccc(COc2cccc3ccc(C)nc23)cc1F	i	0.33
Cc1ccccc1-n1cnnc1SCC(=O)N1CCN(c2ccccc2)CC1	i	-0.63
O=C(Nc1ccccc1)C(O)C(O)C(=O)Nc1ccccc1 (stereo unspecified)	i	-0.35
CCCOc1ccccc1NC(=O)c1c(-c2ccccc2)noc1C	-6.06*	-0.84*
O=C(CC1C(=O)NCCN1Cc1ccccc1)NC1CCCCCC1 (stereo unspecified)	i	0.18
